AF4-AF9 inh = inhibitors of AF4 peptide binding to AF9, primary screen, biochemical, AlphaScreen, biotin-AF4 peptide, FLAG-AF9, single point; AID 651704, 2012; Protein AF-9 (Homo sapiens), P42568; inhibition, % at 10 µM; 0.47% of 350,000 active;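 active = every replicate reaching a set inhibition limit, whatever the replicate mean, cut at about 25% in these data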;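 also: 0% = plate neutral control median and 100% = total signal loss; the record names both 10 and 1 µM as test concentration; the first replicate is given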
Target sequence (P42568 whole entry, looked up): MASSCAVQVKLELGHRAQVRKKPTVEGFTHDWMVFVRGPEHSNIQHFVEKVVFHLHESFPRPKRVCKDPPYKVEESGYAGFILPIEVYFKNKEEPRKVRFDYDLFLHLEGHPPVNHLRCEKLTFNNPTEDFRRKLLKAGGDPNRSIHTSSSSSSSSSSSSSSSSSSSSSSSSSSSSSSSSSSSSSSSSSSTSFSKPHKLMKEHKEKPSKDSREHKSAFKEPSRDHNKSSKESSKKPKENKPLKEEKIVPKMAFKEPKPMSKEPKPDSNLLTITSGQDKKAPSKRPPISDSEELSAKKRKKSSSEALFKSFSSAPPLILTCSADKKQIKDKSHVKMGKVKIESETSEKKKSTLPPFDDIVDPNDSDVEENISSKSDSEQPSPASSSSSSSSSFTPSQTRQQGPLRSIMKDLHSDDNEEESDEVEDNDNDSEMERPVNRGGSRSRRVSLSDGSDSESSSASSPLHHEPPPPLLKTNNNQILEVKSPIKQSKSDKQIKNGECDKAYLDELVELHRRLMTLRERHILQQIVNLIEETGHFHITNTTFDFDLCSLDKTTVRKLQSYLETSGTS
FGF22 binding = binders of human FGF22 protein, primary screen, FGF22 synaptogenesis inhibitor project, biophysical, thermal shift, single point. recombinant FGF22 thermal shift, SYPRO orange fluorescence; percent of sucrose octasulfate shift, DMSO zero. calls only at 9.99 µM. 1.5% of 340,000 active;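 active = melting point raised past a set limit in the mean and every replicate; three in four hits are not shown here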
Target sequence (Q9HCT0 whole entry, looked up): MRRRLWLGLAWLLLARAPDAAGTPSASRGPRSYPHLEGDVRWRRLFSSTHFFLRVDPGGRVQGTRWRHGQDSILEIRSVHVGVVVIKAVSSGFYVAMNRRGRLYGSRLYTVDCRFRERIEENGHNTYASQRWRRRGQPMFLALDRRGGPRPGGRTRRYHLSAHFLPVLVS
* = called active by the depositor; i = inactive.

Fields: AF4-AF9 inh | FGF22 binding
- CCC(=O)Nc1ccc2c(c1)C(=O)N(C)[C@H]1CC[C@@H](CC(=O)NCCc3ccccc3)O[C@@H]1CO2
    -2.5 | i
- C[C@@H]1CN([C@@H](C)CO)C(=O)c2cc(NC(=O)CCCCCC(=O)Nc3ccccc3N)ccc2O[C@@H]1CN(C)C(=O)Nc1ccc(F)cc1
    -0.3 | i
- CC(C)NC(=O)N(C)C[C@@H]1Oc2cc(-c3ccncc3)ccc2S(=O)(=O)N([C@@H](C)CO)C[C@H]1C
    -3.0 | i
- O=C(C[C@@H]1CC[C@H]2[C@@H](COC[C@H](O)CN2C(=O)Nc2ccc(Cl)c(Cl)c2)O1)NCc1ccc(Cl)c(Cl)c1
    -0.3 | i
- C[C@@H]1CN([C@@H](C)CO)C(=O)c2cc(NS(=O)(=O)c3ccc(F)cc3)ccc2O[C@@H]1CN(C)Cc1ccc(C(=O)O)cc1
    0.1 | i
- CO[C@@H]1CN(C)C(=O)c2ccc(NC(=O)CC(F)(F)F)cc2OC[C@@H](C)N(C(=O)C2CC2)C[C@@H]1C
    -4.2 | i
- C[C@@H]1CN([C@H](C)CO)C(=O)c2cc(NS(=O)(=O)c3ccccc3)ccc2O[C@@H]1CN(C)Cc1ccc(C(=O)O)cc1
    -2.9 | i
- CC(C)NC(=O)N1CCCCN2[C@H](CO)[C@H](c3ccc(C#Cc4ccccc4)cc3)[C@H]2C1
    3.5 | i
- C[C@H](NC(=O)[C@@H]1[C@@H](CO)[C@@H]2Cn3c(ccc(C4=CCCC4)c3=O)[C@H]1N2C(=O)C1CC1)c1ccccc1
    0.9 | i
- C[C@H]1CN([C@@H](C)CO)C(=O)c2cc(NS(C)(=O)=O)ccc2O[C@H]1CN(C)C(=O)Nc1cccc2ccccc12
    -1.8 | i
- Cc1noc(C)c1NC(=O)Nc1cccc2c1O[C@H](CN(C)C(=O)NC1CCCCC1)[C@H](C)CN([C@@H](C)CO)C2=O
    -3.2 | i
- OC[C@H]1[C@@H](c2ccc(C#CC3CC3)cc2)[C@H]2CN(CCC(F)(F)F)CCCCN21
    6.9 | i
- CCC(=O)N1CCCCN2[C@H](CO)[C@H](c3ccc(C#Cc4ccccc4F)cc3)[C@@H]2C1
    -13.9 | i
- O=C(CC1CC1)N1CC2(C1)[C@@H](c1ccccc1)[C@H](CO)N2CC1CCOCC1
    -2.7 | i
- COc1ccc(CNC(=O)C[C@H]2C=C[C@H](NC(=O)c3cccc(F)c3)[C@H](CO)O2)cc1
    -2.7 | i
- Cc1noc(C)c1NC(=O)Nc1cccc2c1O[C@H](CN(C)S(C)(=O)=O)[C@H](C)CN([C@H](C)CO)C2=O
    -0.3 | i
- CC(C)NC(=O)N1[C@H](CNC(=O)CN(C)C)[C@@H](c2ccccc2)[C@@H]1CO
    -3.0 | i
- C[C@@H]1CCCCO[C@H](CN(C)C(=O)Cc2ccccc2)[C@H](C)CN([C@H](C)CO)C(=O)c2cc(NC(=O)c3ccncc3)ccc2O1
    -0.1 | i
- COc1ccc2c3c(n(C)c2c1)[C@H](CO)N(C(=O)c1ccc(F)cc1)CC31CN(C(=O)c2ccc(F)cc2)C1
    2.4 | i
- C[C@@H]1CN([C@H](C)CO)C(=O)c2cc(NS(=O)(=O)c3ccccc3)ccc2O[C@@H](C)CCCCO[C@@H]1CN(C)C(=O)Cc1ccccc1
    1.0 | i
- Cc1ccc(S(=O)(=O)Nc2ccc3c(c2)C(=O)N([C@@H](C)CO)C[C@H](C)[C@@H](CN(C)C(=O)Nc2ccccc2)O3)cc1
    -1.6 | i
- O=C(c1ccccc1F)N1CC[C@@H]2[C@@H](CO)Nc3ccc(-c4ccc(F)cc4)cc3[C@@H]21
    2.1 | i
- C[C@H](CO)N1C[C@H](C)[C@H](CN(C)S(=O)(=O)c2ccc(Cl)cc2)OCCCC[C@H](C)Oc2ccc(NC(=O)Nc3ccc(F)cc3)cc2C1=O
    -6.7 | i
- CCS(=O)(=O)Nc1ccc2c(c1)C(=O)N(C)[C@H]1CC[C@H](CC(=O)N3CCOCC3)O[C@H]1CO2
    -0.1 | i
- C[C@@H]1CCCCO[C@H](CN(C)C)[C@H](C)CN([C@@H](C)CO)C(=O)c2cc(NS(=O)(=O)c3cccs3)ccc2O1
    -1.5 | i
- COc1ccc(NC(=O)Nc2ccc3c(c2)C(=O)N([C@@H](C)CO)C[C@H](C)[C@@H](CN(C)S(C)(=O)=O)OCCCC[C@@H](C)O3)cc1
    2.7 | i
- COc1ccc(-c2ccccc2[C@H]2[C@@H](C#N)N(C(=O)C3CC3)[C@@H]2CO)cc1
    -4.1 | i
- CCN(C[C@H]1[C@H](c2ccccc2)[C@@H](CO)N1C(C)=O)C(=O)NC(C)C
    -2.2 | i
- C[C@H]1CN([C@@H](C)CO)C(=O)c2cc(NC(=O)Cc3cn(C)c4ccccc34)ccc2O[C@@H]1CN(C)S(=O)(=O)c1ccccc1
    1.9 | i
- Cc1ccc(S(=O)(=O)Nc2ccc3c(c2)C(=O)N([C@@H](C)CO)C[C@H](C)[C@@H](CN(C)C(=O)NC(C)C)O3)cc1
    -1.2 | i

The list goes on:
Fields: AF4-AF9 inh | FGF22 binding
- CCCN(C)C[C@H]1OCCCC[C@H](C)Oc2ccc(NS(=O)(=O)c3ccc(OC)cc3)cc2C(=O)N([C@@H](C)CO)C[C@H]1C
    -0.5 | i
- O=C(NCC1CC1)[C@@H]1[C@@H](CO)[C@@H]2Cn3c(ccc(/C=C/c4ccccc4)c3=O)[C@H]1N2C(=O)C1CCC1
    -13.2 | i
- C[C@@H]1CN([C@H](C)CO)C(=O)c2cc(NC(=O)Cn3cnnn3)ccc2O[C@H]1CN(C)C(=O)Nc1cccc2ccccc12
    -2.1 | i
- CNC[C@H]1Oc2ccc(NC(=O)Nc3ccccc3)cc2C(=O)N([C@H](C)CO)C[C@H]1C
    0.0 | i
- C[C@@H]1CN([C@H](C)CO)S(=O)(=O)c2ccc(C#CC(C)(C)O)cc2O[C@H]1CN(C)CC1CCCC1
    1.8 | i
- C[C@@H]1CN([C@H](C)CO)C(=O)c2cc(C3=CCCC3)cnc2O[C@H]1CN(C)C(=O)c1cccnc1
    -1.0 | i
- C[C@H]1CCCCO[C@H](CN(C)C(=O)Nc2ccc(C(F)(F)F)cc2)[C@@H](C)CN([C@@H](C)CO)C(=O)c2cc(NS(=O)(=O)c3cccs3)ccc2O1
    -0.8 | i
- COc1ccc(NC(=O)Nc2cccc3c2O[C@H](CN(C)S(=O)(=O)c2cn(C)cn2)[C@H](C)CN([C@H](C)CO)C3=O)cc1
    -0.7 | i
- C[C@@H]1CCCCO[C@H](CN(C)C(=O)Cc2ccccc2)[C@H](C)CN([C@@H](C)CO)C(=O)c2cc(NC(=O)c3ccncc3)ccc2O1
    -6.2 | i
- C[C@H](CO)N1C[C@H](C)[C@H](CN(C)CC2CC2)OCc2ccccc2-c2ccccc2C1=O
    -2.9 | i
- O=C(Nc1ccccc1F)N1CCCCN2[C@H](CO)[C@H](c3ccc(C#Cc4ccccc4)cc3)[C@H]2C1
    7.4 | i
- CC(=O)N(C)C[C@H]1Oc2ncc(-c3ccc(F)cc3)cc2C(=O)N([C@@H](C)CO)C[C@H]1C
    -3.7 | i
- CNC[C@@H]1Oc2ccc(NS(=O)(=O)c3cn(C)cn3)cc2CC(=O)N([C@H](C)CO)C[C@H]1C
    -3.3 | i
- O=C(NCC[C@@H]1CC[C@H](NS(=O)(=O)c2ccccc2)[C@H](CO)O1)c1ccccc1F
    1.2 | i
- Cc1cccc(S(=O)(=O)N2C[C@@H]3[C@H](c4ccccc42)[C@H](CO)N3C(=O)C2CC2)c1
    -0.3 | i
- CC(C)C#Cc1ccc2c(c1)O[C@H](CN(C)C(=O)C1CC1)[C@@H](C)CN([C@@H](C)CO)S2(=O)=O
    4.4 | i
- C[C@@H]1CCCCO[C@@H](CN(C)C(=O)Nc2ccc3c(c2)OCO3)[C@H](C)CN([C@H](C)CO)C(=O)c2cc(NC(=O)Nc3ccc(C(F)(F)F)cc3)ccc2O1
    0.0 | i
- C[C@H](CO)N1C[C@H](C)[C@H](CN(C)S(=O)(=O)c2ccccc2)Oc2ccc(NS(=O)(=O)c3cn(C)cn3)cc2C1=O
    -7.0 | i
- COCC(=O)N1C[C@@H](C)[C@@H](OC)CN(C)C(=O)c2ccc(NC(=O)c3ccc(OC)cc3)cc2OC[C@@H]1C
    -4.5 | i
- O=C(Nc1ccc(F)cc1)N1C[C@H]2[C@@H](c3ccccc31)[C@@H](CO)N2C(=O)c1ccccc1F
    -4.1 | i
- CO[C@H](CN(C)S(=O)(=O)c1ccccc1)[C@@H](C)CN(C(=O)Nc1ccccc1F)[C@@H](C)CO
    -1.1 | i
- CCCC(O)C#Cc1cnc2c(c1)C(=O)N([C@H](C)CO)C[C@H](C)[C@H](CN(C)S(=O)(=O)c1ccc(F)cc1)O2 (some centres not stated)
    -3.2 | i
- C[C@H](CO)N1C[C@H](C)[C@H](CN(C)C(=O)c2cccnc2)Oc2cc(C#CC3CC3)ccc2S1(=O)=O
    -1.4 | i
- CO[C@H]1CN(C)C(=O)c2ccc(NC(C)=O)cc2OC[C@@H](C)N(Cc2cncnc2)C[C@@H]1C
    3.3 | i
- COc1ccc(NC(=O)Nc2ccc3c(c2)C(=O)N([C@@H](C)CO)C[C@H](C)[C@H](CN(C)S(=O)(=O)c2ccc(Cl)cc2)O3)cc1
    -3.2 | i
- C[C@H]1CN([C@@H](C)CO)C(=O)c2cc(NC(=O)CCN3CCOCC3)ccc2O[C@@H]1CN(C)S(=O)(=O)c1cccs1
    -11.2 | i
- Cn1cnc(CCNC(=O)C[C@@H]2CC[C@H]3[C@@H](COC[C@@H](O)CN3C(=O)Nc3ccc(C(F)(F)F)cc3)O2)c1
    6.5 | i
- CCC(=O)Nc1ccc2c(c1)C(=O)N(C)C[C@@H](OC)[C@@H](C)CN(CCc1ccccc1)[C@H](C)CO2
    2.6 | i
- O=C(C[C@@H]1CC[C@@H]2[C@H](COC[C@H](O)CN2CCC(F)(F)F)O1)NCC1CC1
    -2.5 | i
- C[C@@H]1CCCCO[C@H](CN(C)C(=O)Nc2ccc(C(F)(F)F)cc2)[C@H](C)CN([C@H](C)CO)C(=O)c2cc(NS(=O)(=O)c3cn(C)cn3)ccc2O1
    0.1 | i

Pulled by structure from the list above, three records:
Fields: AF4-AF9 inh | FGF22 binding
- CCCC(O)C#Cc1cnc2c(c1)C(=O)N([C@H](C)CO)C[C@H](C)[C@H](CN(C)S(=O)(=O)c1ccc(F)cc1)O2 (some centres not stated)
    -3.2 | i
- C[C@H](CO)N1C[C@H](C)[C@H](CN(C)C(=O)c2cccnc2)Oc2cc(C#CC3CC3)ccc2S1(=O)=O
    -1.4 | i
- COc1ccc(NC(=O)Nc2ccc3c(c2)C(=O)N([C@@H](C)CO)C[C@H](C)[C@H](CN(C)S(=O)(=O)c2ccc(Cl)cc2)O3)cc1
    -3.2 | i

Other structures follow.
Fields: AF4-AF9 inh | FGF22 binding
- CCC(=O)N1[C@H](CO)[C@H](c2ccccc2)C12CN(Cc1nccs1)C2
    0.2 | i
- CNC[C@H]1Oc2ccc(NC(=O)Nc3c(C)noc3C)cc2C(=O)N([C@H](C)CO)C[C@H]1C
    -2.1 | i
- O=C(C[C@H]1CC[C@H]2NC[C@H](O)COC[C@@H]2O1)NCCN1CCCCC1
    1.0 | i
- C[C@@H]1CN([C@H](C)CO)C(=O)c2cc(NC(=O)C3CCCCC3)ccc2O[C@@H]1CN(C)CC1CC1
    1.4 | i
- C[C@@H]1CN([C@@H](C)CO)C(=O)Cc2cc(NC(=O)Nc3ccccc3)ccc2O[C@H]1CN(C)S(=O)(=O)c1ccccc1
    -9.5 | i
- CC(C)NC(=O)N(C)C[C@H]1Oc2ccc(NC(=O)C3CC3)cc2CC(=O)N([C@@H](C)CO)C[C@@H]1C
    -0.4 | i
- COc1ccc(S(=O)(=O)N(C)C[C@@H]2Oc3ccc(NC(=O)Nc4cccc5ccccc45)cc3CC(=O)N([C@H](C)CO)C[C@H]2C)cc1
    5.1 | i
- CO[C@@H](CN(C)S(=O)(=O)c1cccc(Cl)c1)[C@@H](C)CN([C@@H](C)CO)S(=O)(=O)c1ccc(Cl)cc1
    -2.5 | i
- CN(C)CC(=O)N1[C@H](CO)[C@@H](c2ccc(-c3ccc(C(=O)N(C)C)cc3)cc2)[C@@H]1C#N
    -3.8 | i
- O=C(NCC[C@@H]1CC[C@@H](NC(=O)C2CCC2)[C@H](CO)O1)Nc1ccc(Cl)cc1
    15.6 | i
- C/C=C/c1ccc([C@H]2[C@@H](CO)N(c3nc(-c4ccccc4)cs3)[C@H]2C#N)cc1
    -10.3 | i
- CCC(=O)N1[C@@H](CO)[C@@H]2c3ccccc3N(C(=O)c3ccc4c(c3)OCO4)C[C@@H]21
    -3.0 | i
- C[C@H]1CN([C@@H](C)CO)C(=O)c2cccc(N(C)C)c2O[C@@H]1CN(C)S(=O)(=O)c1cccs1
    -3.1 | i
- C[C@@H]1CN([C@H](C)CO)C(=O)Cc2cc(NC(=O)Nc3ccc(F)cc3)ccc2O[C@@H]1CN(C)Cc1ccc(-c2ccccc2)cc1
    -9.0 | i
- COc1ccc2c3c([nH]c2c1)[C@@H](CO)N(S(C)(=O)=O)CC31CCN(Cc2nccs2)CC1
    -0.5 | i
- C[C@H]1CN([C@@H](C)CO)C(=O)c2cc(-c3ccc(C(=O)N(C)C)cc3)cnc2O[C@H]1CN(C)C(=O)c1cccnc1
    -0.6 | i

Sorted by molar mass (descending): 3 of the compounds above
Fields: AF4-AF9 inh | FGF22 binding
- C[C@@H]1CCCCO[C@H](CN(C)C)[C@H](C)CN([C@@H](C)CO)C(=O)c2cc(NS(=O)(=O)c3cccs3)ccc2O1
    -1.5 | i
- CCC(=O)Nc1ccc2c(c1)C(=O)N(C)C[C@@H](OC)[C@@H](C)CN(CCc1ccccc1)[C@H](C)CO2
    2.6 | i
- CCC(=O)Nc1ccc2c(c1)C(=O)N(C)[C@H]1CC[C@@H](CC(=O)NCCc3ccccc3)O[C@@H]1CO2
    -2.5 | i

From PubChem BioAssay

Only part of the results is shown; rates above refer to the full screens.
